Rango-impB inh: prevents formation of the Rango-importin beta complex | 0.031% of 340,000 active | Potency, µM (top dose mostly 92.2 µM), inactives show at the highest dose inhibition of complex formation | AID 540263 | Rango CFP/YFP FRET sensor + importin beta, 45 min | Q14974; active = rising FRET ratio curve, often small or poorly fitted; inconclusive = mostly compound fluorescence or quenching in the first reads; inactive = flat curves in all reads;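 further: potency means the concentration at half of the fitted maximal effect; 0% = DMSO wells and 100% = buffer wells lacking importin beta; nearly all actives have a fitted effect of over 15% in size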
Target sequence (Q14974 whole entry, looked up): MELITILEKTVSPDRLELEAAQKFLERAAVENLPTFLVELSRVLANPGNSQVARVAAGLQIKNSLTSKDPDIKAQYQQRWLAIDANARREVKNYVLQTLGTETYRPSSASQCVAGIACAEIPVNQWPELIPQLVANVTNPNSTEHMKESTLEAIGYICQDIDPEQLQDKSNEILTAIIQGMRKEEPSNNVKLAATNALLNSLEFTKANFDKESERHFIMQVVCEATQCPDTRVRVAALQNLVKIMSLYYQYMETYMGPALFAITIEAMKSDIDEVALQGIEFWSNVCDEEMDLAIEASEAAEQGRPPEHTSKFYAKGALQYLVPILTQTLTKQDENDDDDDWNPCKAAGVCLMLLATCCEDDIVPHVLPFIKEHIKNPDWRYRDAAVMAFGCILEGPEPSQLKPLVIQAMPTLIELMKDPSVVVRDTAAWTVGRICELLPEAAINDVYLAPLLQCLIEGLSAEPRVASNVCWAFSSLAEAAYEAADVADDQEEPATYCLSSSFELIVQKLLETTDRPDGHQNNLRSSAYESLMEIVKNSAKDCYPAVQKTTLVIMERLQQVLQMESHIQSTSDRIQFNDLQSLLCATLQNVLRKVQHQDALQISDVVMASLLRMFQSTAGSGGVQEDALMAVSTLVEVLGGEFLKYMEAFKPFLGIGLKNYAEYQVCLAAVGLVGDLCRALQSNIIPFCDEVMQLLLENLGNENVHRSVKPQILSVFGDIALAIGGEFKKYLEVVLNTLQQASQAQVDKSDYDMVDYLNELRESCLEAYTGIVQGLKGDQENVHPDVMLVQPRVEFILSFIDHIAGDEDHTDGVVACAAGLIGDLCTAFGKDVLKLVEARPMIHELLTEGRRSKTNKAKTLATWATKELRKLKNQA
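FRET biosensor Rango (snurportin 1 IBB between N-terminal EYFP and C-terminal Cerulean), 50 nM in PBS/1 mM DTT/0.02% Tween-20/0.1% BSA, preincubated 5 min RT with compound; 0.125 microM importin beta added, 45 min RT, CFP/YFP FRET ratio read.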
miR-21 FLuc: raises the signal of a miR-21 reporter. HeLa miR-21 FLuc reporter, luciferase, 48 h. Potency, µM (titrated, usually from 38.3 µM), without a hit: at the top dose reporter change, positive = more light. 340,000 tested, under 10 active; active = well fitted rising curve with a large enough effect; inconclusive = small, poorly fitted or top-dose-only effect; inactive = no such curve, though single readings can be large or run the other way;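 further: % of control where 0% means no effect; miR-21 action dims this reporter so a rising signal means less miR-21 action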
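HeLa cells stably expressing CMV-driven firefly luciferase with a downstream miR-21 binding sequence, endogenously expressing miR-21, were treated with titrations (up to about 40uM final) for 48 hours at 37 degree Celsius. Luciferase luminescence was read after lysis.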
Rango dissoc inh: prevents RanGTP from dissociating the Rango-importin beta complex | Potency, µM (top dose mostly 46.1 µM), without a hit: at the highest dose activity change, negative = inhibition | O95149+P62826 | 0.071% of 340,000 active | AID 540253 | Biochemical FRET Rango-importin beta, RanGTP-induced dissociation; active means falling FRET ratio curve, often poorly fitted, with flat reads before Ran was added; inconclusive means other falling curves, or compound fluorescence or quenching; inactive means flat or rising ratio curve;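 further: potency means the concentration at half of the fitted maximal effect; % of control where 0% means no effect; nearly all actives have a fitted effect of over 45% in size; -100% = wells without RanGTP and RCC1; the record marks most hits as doubtful in a second field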
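Recombinant Rango FRET biosensor (EYFP–snurportin 1 IBB–cerulean CFP10) at 0.1 uM premixed with 0.25 uM importin beta in PBS, 1 mM DTT, 0.02% Tween-20, 0.1% BSA. Compound added 5 min; RanGTP-RCC1 (0.6 uM Ran, 2 mM GTP, 0.2 uM RCC1) then triggers release, read at 45 min.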
GLA inh pH 4.5: alpha-galactosidase A (human) inhibition, pH 4.5; P06280; purified enzyme, 4-MU-alpha-Gal fluorescence, pH 4.5; activity change, negative = inhibition, % at 105 µM; 230,000 tested, under 10 active; inconclusive = small, poorly fitted or top-dose-only inhibition, or a rising curve; inactive = flat fitted curve, though single readings scatter; no compound was filed as active;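 further: 0% = full activity with enzyme and -100% = basal without enzyme; dose as in the result columns while the protocol names 77 µM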
* hit, by the source's call; u = inconclusive; x = no result given.

No. | SMILES | Rango-impB inh | miR-21 FLuc
1 | Cc1ccc2nc(Cl)c(CNCc3ccccc3)cc2c1 | -2.5% | 5%
2 | CCOC(=O)Cn1c(=O)c(-c2ccccc2N)nc2ccccc21 | -2.5% | -2%
3 | O=C(COC(=O)c1ccc(Br)o1)NCc1ccc(Cl)cc1 | -0.9% | x
4 | N#Cc1cnn(-c2nc(SCc3ccccc3)nc3sc4c(c23)CCCC4)c1N | -1.6% | -5%
5 | CC(=O)N1CCN(CCS(=O)(=O)c2cc(Cl)ccc2Cl)CC1 | 0.3% | x
6 | CC(C)Cn1c([N+](=O)[O-])nc2c1c(=O)[nH]c(=O)n2C | -2.9% | u
7 | Nc1ccc2cn[nH]c2c1 | 4.9% | -5%
8 | CC(Oc1ccc(Cl)cc1Cl)C(=O)OCC(=O)c1c(N)n(C)c(=O)n(C)c1=O (stereo not given) | 7.0% | x
9 | COc1ccc(-c2cc(-c3ccccc3)c(C#N)c(SCC(=O)O)n2)cc1 | -1.3% | x
10 | COc1ccc(Cc2nnc(N/N=C/c3ccc(O)cc3)[nH]c2=O)cc1OC | 5.4% | u
11 | COC(=O)C1CCN(c2nc3ccccc3nc2C(C#N)C(=O)OCC(C)C)CC1 (stereo not given) | u | -2%
12 | Fc1ccccc1COc1ccc(Br)cc1CNCc1cccnc1 | -0.8% | 0%

No. | Rango dissoc inh | GLA inh pH 4.5
1 | -4% | 4
2 | -3% | 1
3 | -7% | x
4 | -2% | -3
5 | 7% | x
6 | 1% | -3
7 | -4% | x
8 | -14% | x
9 | -6% | x
10 | -11% | 6
11 | u | 0
12 | -6% | 4

Next part.
No. | SMILES | Rango-impB inh | miR-21 FLuc
13 | CCOc1ccc(CCN2CN(CC)CNC2=S)cc1OCC | -3.6% | 5%
14 | CC1CC(C)CN(CCCNC(=O)c2ccc3c(c2)ncn3C2CCCC2)C1 (stereo not given) | 0.6% | -23%
15 | CN(C)S(=O)(=O)c1ccc(C(=O)NC(=O)CSc2nncs2)cc1 | 1.7% | x
16 | COc1cccc(-c2cc(N3C(=O)Nc4ccccc4N3O)n[nH]2)c1 | -1.4% | 0%
17 | COc1ccc(CNC(=O)C(c2ccncc2)N(C(=O)Cc2cccs2)c2ccc(C)cc2)cc1 (stereo not given) | 0.3% | 2%
18 | Cc1ccc(-n2c(C)c3c(C)nnc(C)c3c2C)cc1C | u | 7%
19 | CC(C)c1ccc(C(C)NCCS(=O)(=O)c2ccc(Br)cc2)cc1 (stereo not given) | 11% | -1%
20 | CC(OC(=O)c1ccccc1NCCO)C(=O)NCC(=O)Nc1ccc(F)c(F)c1F (stereo not given) | -1.7% | 4%
21 | COc1ccc(C(N)c2nccc3cc(OC)c(OC)cc23)cc1OC (stereo not given) | 1.0% | -16%
22 | Cc1ccc(OCC(=O)NCc2cccs2)c([N+](=O)[O-])n1 | -3.5% | -25%
23 | CN1CCN(C(=O)c2ccc(-c3ccc(Br)cc3)o2)CC1 | 1.0% | x
24 | COc1ccc(CNCc2cc3c(cc2[N+](=O)[O-])OCO3)cc1 | -1.4% | -12%

No. | Rango dissoc inh | GLA inh pH 4.5
13 | -1% | 2
14 | 1% | x
15 | 0% | x
16 | -10% | 9
17 | 0% | -1
18 | 0% | -5
19 | 0% | x
20 | -10% | x
21 | -14% | x
22 | 12% | 6
23 | u | x
24 | 3% | x

5 compounds already listed, arranged by the value under miR-21 FLuc, low to high.
no. | mol | Rango-impB inh | miR-21 FLuc | Rango dissoc inh | GLA inh pH 4.5
22 | Cc1ccc(OCC(=O)NCc2cccs2)c([N+](=O)[O-])n1 | -3.5% | -25% | 12% | 6
16 | COc1cccc(-c2cc(N3C(=O)Nc4ccccc4N3O)n[nH]2)c1 | -1.4% | 0% | -10% | 9
17 | COc1ccc(CNC(=O)C(c2ccncc2)N(C(=O)Cc2cccs2)c2ccc(C)cc2)cc1 (stereo not given) | 0.3% | 2% | 0% | -1
20 | CC(OC(=O)c1ccccc1NCCO)C(=O)NCC(=O)Nc1ccc(F)c(F)c1F (stereo not given) | -1.7% | 4% | -10% | x
13 | CCOc1ccc(CCN2CN(CC)CNC2=S)cc1OCC | -3.6% | 5% | -1% | 2

(listing goes on)
No. | SMILES | Rango-impB inh | miR-21 FLuc
25 | COC(=O)c1ccc(Oc2coc3cc(OCc4ccc([N+](=O)[O-])cc4)ccc3c2=O)cc1 | -3.1% | -17%
26 | Cc1ccc(C(=O)NCC(C)(C)N2CCOCC2)s1 | u | -1%
27 | CCOC(=O)c1cc(-c2ccc(F)cc2)n(CC(=O)N2CCCC2)c1C | -2.5% | -8%
28 | c1ccc2oc(NC3=NCN(CC4CCCO4)CN3)nc2c1 (stereo not given) | -2.7% | -56%
29 | COc1cc(OC)cc(-c2c(-c3ccc(C(C)=O)cc3)c3cc(-c4cccc5[nH]ccc45)ccc3n2C)c1 | u | x
30 | Cc1ccc(C)c(N2CCN(C(=O)c3ccc(Cn4c(=S)[nH]c5ccc(N6CCOCC6)cc5c4=O)cc3)CC2)c1 | u | -33%
31 | Cc1ccc(C(=O)NCC(=O)N/N=C/c2sccc2C)cc1[N+](=O)[O-] | -0.4% | -3%
32 | CCC(C(=O)OC)n1cnc2c(nnn2-c2ccc(OC)cc2)c1=O (stereo not given) | u | -7%
33 | CC(=O)Nc1ccc(NC(=O)C(F)(F)F)cc1 | 0.5% | -4%
34 | S=C1NC2(CCCCC2)Nc2ccccc21 | u | -20%
35 | Cc1ccc(S(=O)(=O)c2nc(-c3ccco3)oc2NCC2CCCO2)cc1 (stereo not given) | 0.0% | -11%
36 | O=C(NCC(=O)N1CCN(C(=O)c2ccco2)CC1)c1ccc(Cl)cc1 | -2.4% | x

No. | Rango dissoc inh | GLA inh pH 4.5
25 | 1% | 2
26 | 3% | 2
27 | -20% | -3
28 | 17% | 2
29 | -14% | x
30 | u | -12
31 | 4% | -11
32 | 1% | 1
33 | 0% | 4
34 | -14% | 0
35 | -15% | -6
36 | u | x

Two records drawn at random from those above:
No. | SMILES | Rango-impB inh | miR-21 FLuc
32 | CCC(C(=O)OC)n1cnc2c(nnn2-c2ccc(OC)cc2)c1=O (stereo not given) | u | -7%
29 | COc1cc(OC)cc(-c2c(-c3ccc(C(C)=O)cc3)c3cc(-c4cccc5[nH]ccc45)ccc3n2C)c1 | u | x

No. | Rango dissoc inh | GLA inh pH 4.5
32 | 1% | 1
29 | -14% | x

Further compounds follow.
No. | SMILES | Rango-impB inh | miR-21 FLuc
37 | CCOC(=O)C1C(=O)C=C(/C=C/c2ccccc2)CC1c1ccc(Cl)cc1 (stereo not given) | u | 1%
38 | CCN(CC)c1ccc(/C=N/NC(=O)Cc2nnc(NC(=O)Nc3ccccc3)s2)cc1 | u | -12%
39 | CC(C)(C)c1ccc(C2(C)NC(=O)NC2=O)cc1 (stereo not given) | -0.8% | 0%
40 | COC(=O)[C@@]12CCCN1[C@H](c1ccc(-c3ccccc3)cc1)[C@@H]1C(=O)N(C)C(=O)[C@@H]12 | 0.3% | x
41 | CCCn1c(SCC(=O)N(C)CC(=O)Nc2ccc(C)cc2)n[nH]c1=O | -0.3% | x
42 | CSc1ccc(CN(C)C(=O)c2cc(=O)c3ccccc3o2)cc1 | -0.3% | -12%
43 | O=C(CSc1nnc(-c2ccncc2)n1Cc1ccccc1)NC1CCCc2ccccc21 (stereo not given) | 3.9% | -1%
44 | CCSc1nnc(-c2ccc(S(=O)(=O)N3CCOCC3)cc2)n1CC1CCCO1 (stereo not given) | 0.2% | -31%
45 | CCCN(C(=O)CSc1nc2ccccc2n1CC)C1CCS(=O)(=O)C1 (stereo not given) | 0.0% | 1%
46 | CCOc1ccc(OCCN(C)Cc2ccccc2)cc1 | 3.9% | -5%
47 | CCOC(=O)Nc1ccc(NC(=O)c2c(OC)cccc2OC)cc1 | 1.6% | -4%
48 | CCOC(=O)Cc1c(C)nc2c(-c3ccccc3)cnn2c1C | -2.4% | -65%

No. | Rango dissoc inh | GLA inh pH 4.5
37 | -22% | -8
38 | -18% | 6
39 | -1% | x
40 | 2% | x
41 | 10% | x
42 | 10% | x
43 | -1% | -2
44 | 13% | 6
45 | -3% | x
46 | 1% | -1
47 | 13% | -14
48 | 10% | -4

Other records follow.
No. | SMILES | Rango-impB inh | miR-21 FLuc
49 | COC(=O)C1C(=O)c2c([nH]c(C(=O)OCCSC)c2C)CC1C (stereo not given) | 3.5% | -47%
50 | CC1CCN(C2=C(NS(=O)(=O)c3ccccc3)C(=O)c3ccccc3C2=O)CC1 | 1.0% | 1%
51 | CSc1ccccc1NC(=O)c1ccc(CN2CCOCC2)cc1 | -1.6% | -38%
52 | S=c1[nH]nc(COc2ccc(Cl)cc2)n1C1CCCCC1 | -4.2% | -6%
53 | COc1ccc(C(=O)/C=C/Nc2cc(C)ccn2)cc1 | -2.0% | -12%
54 | CCOc1ccc(N2C(=O)CC(Sc3nc(CC(C)C)ccc3C#N)C2=O)cc1 (stereo not given) | -2.0% | -5%
55 | CCOc1ccc(CCNC(=O)COC(=O)c2ccc(OC)c(OC)c2OC)cc1OCC | 2.6% | 4%
56 | O=Cc1ccc(N2CCCC2)c(F)c1 | -2.3% | -8%
57 | CCOc1cc(CNCc2ccccn2)cc(Cl)c1OC | 2.7% | -6%
58 | COc1nc(-c2ccccc2)ccc1-c1noc(-c2ccccc2F)n1 | u | -5%
59 | CN(C)c1ccc(/C=C(/NC(=O)c2ccccc2)C(=O)N2CCCC2)cc1 | u | -4%
60 | CC1CCN(Cc2ccc(-c3nnn(CC(=O)Nc4ccccc4Cl)n3)cc2)CC1 | -5.0% | -4%

No. | Rango dissoc inh | GLA inh pH 4.5
49 | 21% | -5
50 | -6% | -16
51 | -15% | 0
52 | -4% | -1
53 | -6% | -15
54 | -2% | -13
55 | 1% | 7
56 | -7% | -7
57 | 1% | 10
58 | -6% | 3
59 | -12% | x
60 | -5% | 5

The listing continues:
No. | SMILES | Rango-impB inh | miR-21 FLuc
61 | COc1ccc(OC)c(Cc2nnc(CCC(=O)N3CCCCCC3)o2)c1 | -1.7% | 0%
62 | NC(=S)COc1ccccc1 | -0.4% | 3%
63 | COc1ccc(N(C)S(=O)(=O)c2cccc(C(=O)NC3CCCC(C)C3C)c2)cc1 (stereo not given) | -1.0% | x
64 | CCN(CC(=O)Nc1cccc(Br)c1)Cc1nc2ccccc2c(=O)[nH]1 | 1.6% | 4%
65 | Cc1ccc(NC(=O)C2(N3CCC3=O)CCCCC2)cc1 | -1.4% | 0%
66 | COc1ccc(/C=C/c2c([N+](=O)[O-])c(=O)n(C)c(=O)n2C)cc1OC | -1.8% | -1%
67 | C[C@@H]1C(c2cccc(Cl)c2)=NN(c2ccc(Br)cc2)[C@H]1C(=O)N1CCOC1=O | u | x
68 | COc1ccc2c(c1)CCC/C2=N\OC(=O)c1ccccc1F | 0.1% | 5%
69 | Cc1sc2ncnc(N3CCC(C(=O)NNC(=O)COc4ccc(Br)cc4)CC3)c2c1C | 2.1% | x

No. | Rango dissoc inh | GLA inh pH 4.5
61 | 0% | 0
62 | 9% | -2
63 | 6% | x
64 | 2% | 4
65 | -15% | 6
66 | 3% | -1
67 | u | u
68 | 1% | -3
69 | 23% | x

Ordered by molecular weight (highest first): some entries from above.
No. | SMILES | Rango-impB inh | miR-21 FLuc
69 | Cc1sc2ncnc(N3CCC(C(=O)NNC(=O)COc4ccc(Br)cc4)CC3)c2c1C | 2.1% | x
68 | COc1ccc2c(c1)CCC/C2=N\OC(=O)c1ccccc1F | 0.1% | 5%
62 | NC(=S)COc1ccccc1 | -0.4% | 3%

No. | Rango dissoc inh | GLA inh pH 4.5
69 | 23% | x
68 | 1% | -3
62 | 9% | -2

Not all compounds are listed; rates above refer to the full screens.
